From PubChem BioAssay
gsp ag: gsp mutant agonism; 0.13% of 340,000 active; Potency, µM (highest dose often 76.9 µM), for the others: at the highest dose activation (cAMP increase), usual class: activators; gsp mutant cells, cAMP HTRF, 30 min; control for the full effect not named in the record; AID 624287; active = well fitted activation curve with a large enough effect; inconclusive = small, poorly fitted or top-dose-only effect, or another doubt; inactive = no such curve, though single readings can be large or run the other way; cell line not stated here;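 further: phosphodiesterase inhibitor Ro 20-1724 added with compounds to block cAMP breakdown; potency means the concentration at half of the fitted maximal effect; nearly all actives have a fitted effect of over 60% in size; about a fifth of the inactives were tested at one dose only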
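Cells stably selected in G418 were plated at 2000/well, grown 16-24 hr, then given compounds in DMSO with the PDE inhibitor […] (300 uM solution added) for 30 min at 37C; cAMP was read by HTRF.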
ClpP mod: qHTS Assay for Activators of ClpP | Potency, µM (titrated, usually from 57.5 µM), for the others: at the top dose activity change, negative = active | purified B. subtilis ClpP, FRET peptide cleavage, 20 min | ATP-dependent Clp protease proteolytic subunit (Bacillus subtilis (strain 168)), P80244 | 1.9% of 340,000 active | AID 651965, 2013; active = well fitted falling curve with a large enough effect; inconclusive = small, poorly fitted or top-dose-only effect; inactive = no such curve, though single readings can be large or run the other way; further: potency means the concentration at half of the fitted maximal effect; the source files actives as falling curves though it sought activators and does not explain the sign; nearly all actives have a fitted effect of over 65% in size; many hits overshoot -100%
Target sequence (P80244 whole entry, looked up): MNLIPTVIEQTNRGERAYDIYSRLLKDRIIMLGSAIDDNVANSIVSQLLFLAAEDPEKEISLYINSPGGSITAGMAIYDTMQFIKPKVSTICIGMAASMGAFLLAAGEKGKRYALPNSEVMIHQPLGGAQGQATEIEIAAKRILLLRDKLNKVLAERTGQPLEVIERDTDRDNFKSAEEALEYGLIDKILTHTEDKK
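ClpP 10 microg/mL final, pH 8 Tris/KCl buffer with BSA, glycerol, Tween-20; compound pinned in; FRET-FV substrate; RT 20 min; Ex320/Em430; ΔFRET vs ADEP 5.8 microM, DMSO, no enzyme.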
TRPML1 inh: human mucolipin-1 channel inhibition; Q9GZU1; TRPML1-inducible cells, Ca2+ dye fluorescence, FDSS; stronger effect = lower value; inhibition of EC80 agonist-evoked calcium signal; activity change, negative = inhibition, % (concentration not given with the values); 0.02% of 390,000 active; AID 624415; in the data active means activity change below about -50%; inconclusive means about -30% to -50%; inactive means above about -30%;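 further: stimulus is agonist 54-4 at its EC80 concentration; on the % scale 0 is the no-effect control and ±100 the full control effect; compound concentration not given in the record; the text of the record puts the active cut at -80%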
Target sequence (Q9GZU1 whole entry, looked up): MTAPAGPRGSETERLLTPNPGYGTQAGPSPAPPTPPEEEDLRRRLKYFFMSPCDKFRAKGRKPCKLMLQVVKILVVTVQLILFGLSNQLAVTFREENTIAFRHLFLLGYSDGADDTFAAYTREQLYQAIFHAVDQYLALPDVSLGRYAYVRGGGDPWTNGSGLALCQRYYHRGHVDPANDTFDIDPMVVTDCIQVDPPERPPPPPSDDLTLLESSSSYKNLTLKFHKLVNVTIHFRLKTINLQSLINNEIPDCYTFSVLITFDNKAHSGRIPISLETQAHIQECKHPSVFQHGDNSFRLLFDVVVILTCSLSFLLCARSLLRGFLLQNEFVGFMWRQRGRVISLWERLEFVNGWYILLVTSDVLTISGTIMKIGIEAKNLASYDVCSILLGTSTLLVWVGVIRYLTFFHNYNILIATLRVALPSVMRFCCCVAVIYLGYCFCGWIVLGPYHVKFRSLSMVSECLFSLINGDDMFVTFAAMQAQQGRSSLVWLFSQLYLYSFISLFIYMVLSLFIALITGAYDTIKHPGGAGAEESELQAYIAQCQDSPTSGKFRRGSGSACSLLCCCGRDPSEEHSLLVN
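Tet-induced TRPML1-DL cells loaded with Ca8 no-wash calcium dye were read kinetically on FDSS. Compound addition was followed by EC80 agonist 54-4 (4 uM final); inhibition was read over 110 s.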
TRPML1 ag: human mucolipin-1 channel agonism; Q9GZU1; TRPML1-expressing cells, Ca2+ dye fluorescence, FDSS; host cell line not named in the record; reference of the full effect not given here; activation, % (no concentration beside the values); 0.12% of 410,000 active; in the data active = activation above about 50%; inconclusive = about 30% to 50%; inactive = below about 30%; further: 0% is about no effect; the text of the record puts the active cut at 80%
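TRPML1-DL cells, Tet-induced overnight (~16 h, 37 degrees C), loaded 45-90 min at room temperature with Ca8 no-wash calcium dye plus quencher. FDSS fluorescence: 10 s baseline, compound pin-transfer, 110 s agonist read, then EC80 54-4 (4uM final) and 110 s antagonist read.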
gsp antag: antagonizes gsp, the McCune-Albright syndrome mutation; 0.4% of 340,000 active; Potency, µM (series often up to 76.9 µM), for inactives: at the highest dose activity change, negative = inhibition, actives largely listed as inhibitors; gsp-mutant cells, cAMP HTRF, 30 min; control for the full effect not named in the record; active = falling curve of any shape with a large fitted effect; inconclusive = falling curve, mostly with a smaller effect; inactive = flat or rising curve; cell line not stated here;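 further: intracellular cAMP measured with PDE inhibitor Ro 20-1724 present during compound exposure; potency means the concentration at half of the fitted maximal effect; on the % scale 0 is the no-effect control and ±100 the full control effect; nearly all actives have a fitted effect of over 65% in size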
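G418-selected cells were plated in DMEM/10% FBS for 16-24 h at 37C, then treated with compounds plus the PDE inhibitor […] (300 uM solution added) for 30 min at 37C. Intracellular cAMP was measured by HTRF after 30 min lysis at room temperature.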
Menin MLL FP FL: displaces fluorescein MLL peptide from human menin; Fluorescence polarization, fluorescein-MLL peptide displacement from menin; AID 1766; FP activity change, % at 61.4 µM; 290,000 tested, under 10 active; inconclusive = falling polarisation curve, or a change in total fluorescence; inactive = total fluorescence flat and polarisation flat or rising; no compound was filed as active; the % refers to the polarisation; negative = inhibition;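 further: % of control where 0% means no effect; inhibitors lower the polarisation; unlabelled MLL peptide was the positive control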
The depositor's hits bear a star; ? = inconclusive; nt = no result given; & = joins results of further samples; [ ] = remark or other dose.

#	SMILES	gsp ag	ClpP mod	TRPML1 inh	TRPML1 ag	gsp antag	Menin MLL FP FL
1	COCCN(C(=O)COC(=O)c1cccc2ccccc12)c1c(N)n(Cc2ccccc2)c(=O)[nH]c1=O	17%	-22%	25	0.5	1%	7.4
2	COc1cccc(CN2CCN(Cc3cc(OC)c(OC)cc3[N+](=O)[O-])CC2)c1	-12%	2.9%	-3	-0.3	-5%	0.3
3	O=C(O)c1ccc(N/N=C/c2ccc(F)c(F)c2)cc1	-2%	-8.3%	-1	-0.2	1%	6.4
4	O=C(CN1CCN(c2cccc(Cl)c2)CC1)NC1CCCc2ccccc21 (configuration not stated)	-1%	nt	10	1.8	-11%	-0.4
5	c1coc(CN2CN=C(Nc3nc4ccccc4s3)NC2)c1	-7%	-4.5%	19	1.8	14%	0.4
6	CCN(CC)CCn1c(NCc2ccco2)nc2ccccc21	-8%	0.2%	9	0.3	2%	1.1
7	Cc1ccc(CNC(=O)C(Cc2ccccc2)NS(=O)(=O)c2ccc(Br)s2)cc1 (configuration not stated)	-10%[15.4 µM]	4.3%	23	2.0	-10%	7.9
8	COc1ccc(S(=O)(=O)Nc2c(C)nn(C)c2C)cc1Br	-1%	0.0%	25	2.0	4%	nt
9	Cc1cc(C)[n+](-c2ccc(C(C)C)cc2)c2[nH]c(=O)[nH]c(=O)c12	-5%	?	9	0.4	13%	-1.4
10	CCN(CC)S(=O)(=O)c1ccc(OC)c(NC(=O)c2cccc([N+](=O)[O-])c2C)c1	?	0.2%	-7	-1.0	?	nt
11	CCC(C)NC(=O)CC(c1ccccc1)c1cc(C)ccc1O (configuration not stated)	-11%	nt	6	-0.1	3%	-0.5
12	Cc1ccc(Nc2nc(=O)c3cc([N+](=O)[O-])ccc3s2)cc1	-55%[inhibitor]	0.1%	10	-0.8	-2%	0.8
13	COCCn1nnnc1C(c1ccc(Cl)cc1)N1CCN(C(=O)c2ccco2)CC1 (configuration not stated)	12%[15.4 µM]	1.7%	-2	-1.2	-12%	-0.1
14	CCC(CC)C(=O)Nc1cccc(-c2nc3cccnc3s2)c1C	nt	?	8	1.4	nt	nt
15	COC(=O)C1C(=O)NCC1c1ccccc1 (configuration not stated)	-38%[inhibitor]	-2.4%	-14	0.7	2%	3.3
16	Cc1ccc(C(=O)NNC(=O)Cn2nnc3ccccc32)cc1	-10%[15.4 µM]	nt	4	-0.9	5%	-2.1
17	O=C1CC2(CCCCC2)Oc2ccc(O)cc21	-2%	-1.9%	1	3.9	9%	0.6
18	CC1CCCC(C)N1C(=O)Cn1cnc2cc([N+](=O)[O-])ccc2c1=O (configuration not stated)	11%[15.4 µM]	-5.0%	-8	-1.9	-31%	-1.9
19	Cc1ccn2cc(CC(=O)O)nc2c1	-36%[inhibitor]	nt	0	-0.7	1%	-15
20	Cc1nc2ccccc2c(=O)n1Cc1ccc([N+](=O)[O-])cc1	-30%[inhibitor]	0.6%	nt	nt	5%	-0.9

Carrying on:
#	SMILES	gsp ag	ClpP mod	TRPML1 inh	TRPML1 ag	gsp antag	Menin MLL FP FL
21	COc1ccc(OC)c(NC(=O)c2cc3c(n(-c4ccc(Cl)cc4)c2=O)CC(C)(C)CC3=O)c1	nt	1.7%	55	-0.7	nt	nt
22	Cn1c(-c2ccc(F)cc2)cnc1SCC(=O)N1CCCCC1	1%	-0.6%	-7	-0.4	14%	1.2
23	O=C(NCc1ccccc1Cl)C(=O)NCC1OCCN1S(=O)(=O)c1ccc(F)cc1 (configuration not stated)	-25%	-1.8%	11	0.7	9%	4.0
24	CN(C(=O)CSc1nnc(N)s1)c1c(N)n(Cc2ccccc2)c(=O)[nH]c1=O	-31%[inhibitor]	-1.4%	7	1.2	-2%[15.4 µM]	6.2
25	COc1cc2c(cc1OC)CN(C(=O)c1oc3ccccc3c1C)CC2	-14%	nt	25	0.6	-4%	-8.0
26	O=C(Nc1ccccc1)c1ccc(NC2CCCCC2)c(S(=O)(=O)N2CCOCC2)c1	?	?	6	-0.5	-7%	-0.5
27	COc1cc(NC(=O)CCn2nc(C)cc2C)cc(OC)c1OC	nt	-0.6%	-23	0.5	nt	nt
28	CSc1nn(CC(=O)Nc2ccccc2F)c(N)c1S(=O)(=O)c1ccccc1	nt	-0.4%	7	-0.5	nt	nt
29	O=C(/C=C/c1ccc2c(c1)OCCO2)c1ccccc1	-16%	-2.0%	-8	1.1	-10%	-0.8
30	CCc1nccn1S(=O)(=O)c1ccc2ccccc2c1	?	-2.5%	-1	-0.9	-5%	-0.1
31	CC1Oc2ccccc2N(Cc2ccccc2Cl)C1=O (configuration not stated)	-2%	-2.0%	14	2.9	?	0.6
32	C=C1CC(Cn2cc(Br)c(=O)[nH]c2=O)(c2ccc(-c3ccccc3)cc2)OC1=O (configuration not stated)	13%	-1.7%	36	10	7%	nt
33	CC1=C(C)C(O)N(Cc2ccccc2)C1=O (configuration not stated)	-20%	0.4%	7	-0.2	8%	0.9
34	O=S(=O)(c1ccccc1)C(/C=N\O)/C=C/c1ccccc1 (configuration not stated)	12%[15.4 µM]	nt	6	0.2	-3%	10
35	COc1cccc(C(=O)CC(=O)C(=O)Nc2ccc([N+](=O)[O-])cc2C)c1	1%	0.4%	-8	1.0	-19%	-7.1
36	COc1ccc(C(=O)CNc2ccc(C)cc2C)cc1	-5%[15.4 µM]	0.7%	7	-0.1	-12%	3.3
37	O=C1CCC(C(=O)OCc2nnc(-c3ccccc3)o2)=NN1	-21%[15.4 µM]	0.4%	11	0.9	3%	nt
38	CCC(C(=O)NC(C)CCc1ccco1)n1nc(C)n2c(cc3occc32)c1=O (configuration not stated)	21%	-3.3%	-12	0.2	-13%	2.7
39	Cc1cccc(NC(=O)c2ccccc2NC(=O)C2CCCCC2)c1C	-7%	1.5%	10	1.2	-5%	?
40	O=C(NCC1CCCO1)c1nn2c(C(F)(F)F)cc(-c3ccc(Br)o3)nc2c1Br (configuration not stated)	?	nt	-15	1.5	-24%	?

Next structures follow:
#	SMILES	gsp ag	ClpP mod	TRPML1 inh	TRPML1 ag	gsp antag	Menin MLL FP FL
41	CCOc1ccc(NC(=O)C2CCN(S(C)(=O)=O)CC2)cc1	?	-3.0%	-23	-0.2	9%	3.2
42	O=C(N[C@@H]1c2ccccc2CC[C@@H]1OCc1ccccc1)c1ccc(C(F)(F)F)cc1	nt	3.7%	-1	-0.1	7%	nt
43	CCC(C)(C)NC(=O)C(c1ccc(C)cc1)N(Cc1ccco1)C(=O)CCC(=O)Nc1nccs1 (configuration not stated)	?	-2.3%	-15	0.3	4%	-1.3
44	COc1cc(Br)c(CC(=O)NC2CC2)cc1OC	6%[15.4 µM]	nt	11	0.9	11%	3.3
45	COc1ccc(C)cc1NC(=O)c1sc2ncnc(N3CCN(c4ccccn4)CC3)c2c1C	17%[15.4 µM]	nt	-24	0.1	?	-0.7
46	CCOc1ccccc1-n1nnnc1SCC(=O)Nc1cc2oc3ccccc3c2cc1OC	-5%	-1.7%	34	0.0	0%	6.2
47	Cc1cccc(NC(=O)N2CCCCCC2)c1C	-56%[inhibitor]	-0.4%	15	0.6	4%	nt
48	COc1ccc(CNC(=O)c2cc(-c3cccs3)nc3ccccc23)c(OC)c1	nt	-7.6%	3	0.5	nt	nt
49	COc1ccc(C2C(C#N)=C(N)Oc3c2oc(CO)cc3=O)cc1 (configuration not stated)	5%	1.2%	nt	nt	0%	?
50	N#Cc1ccccc1NC(=O)CSc1nnc(N)s1	nt	-2.7%	-2	1.7	nt	nt
51	N/C(=N\OC(=O)/C=C/c1ccccc1)c1cccnc1	-19%	-1.4%	24	-0.3	26%	-1.1
52	Cc1cccc(C)c1NC(=O)CCCN1CC(C)OC(C)C1 (configuration not stated)	8%	-0.7%	13	-0.1	8%	-0.9
53	COC(=O)Cn1c(=O)c2c(nc3n2CC(C)CN3CCc2ccccc2)n(C)c1=O (configuration not stated)	-13%	-0.4%	-7	2.9	?	-2.8
54	COCCN(CC(=O)Nc1cccc(C)c1C)C(=O)Cn1cnc2ccccc2c1=O	-17%	0.6%	?	0.6	-2%	nt
55	C/C(=N\S(=O)(=O)c1ccc(C)cc1)NC(=S)Nc1ccc(C)cc1	-33%[inhibitor]	1.2%	2	3.4	-9%	0.4
56	CC(NC(=O)c1ccc(Br)cc1)c1ccc2c(c1)CCCC2 (configuration not stated)	1%	-0.1%	7	1.9	-24%	9.2
57	CCC(=O)NCc1cc(-c2nn(C)c(=O)c3ccccc23)ccc1OC	-3%	-24%&-23%	-15&-14	-0.8&-0.5	-4%	1.5
58	COC(=O)c1sccc1NC(=O)Nc1ccc(C(C)=O)cc1	?	-0.3%	20	0.5	-20%	nt
59	CCN(CC)C(=O)C(=O)Nc1ccc(F)c(Cl)c1	6%	nt	-3	-0.6	0%	-5.6
60	COc1ccccc1C(=O)n1nc(-c2cccnc2)nc1N	10%	6.1%	-4	-1.0	-3%	0.9
61	CCC(C)(C(=O)NC1CCCC1)N(C)C(=O)c1ccccn1 (configuration not stated)	-14%[15.4 µM]	nt	17	1.7	5%	-7.9
62	Cc1ccc(C)c(N2CCN(C(=O)COc3cc(=O)n(C)c4ccccc34)CC2)c1	1%	-1.1%	-10	2.7	-20%	0.1
63	Cc1nnc(SCC(=O)NNC(=O)c2ccco2)n1-c1cccc(Cl)c1	-207%[inhibitor]	3.0%	14	0.6	2%	-0.4

Four structures from above, ordered by SMILES length, largest number first.
#	SMILES	gsp ag	ClpP mod	TRPML1 inh	TRPML1 ag	gsp antag	Menin MLL FP FL
53	COC(=O)Cn1c(=O)c2c(nc3n2CC(C)CN3CCc2ccccc2)n(C)c1=O (configuration not stated)	-13%	-0.4%	-7	2.9	?	-2.8
46	CCOc1ccccc1-n1nnnc1SCC(=O)Nc1cc2oc3ccccc3c2cc1OC	-5%	-1.7%	34	0.0	0%	6.2
48	COc1ccc(CNC(=O)c2cc(-c3cccs3)nc3ccccc23)c(OC)c1	nt	-7.6%	3	0.5	nt	nt
49	COc1ccc(C2C(C#N)=C(N)Oc3c2oc(CO)cc3=O)cc1 (configuration not stated)	5%	1.2%	nt	nt	0%	?
